High-throughput results: PubChem BioAssay, several laboratories
rRNA inh HTS: selective bacterial rRNA inhibition in E. coli. actives 1.6% (n = 350,000). AID 720706. GFP signal change (wild-type ribosome), % (no concentration beside the values). E. coli WT GFP vs humanized-ribosome RFP mutants, fluorescence, 24 h; stronger effect = lower value; DMSO median 0, no signal -100;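 active means significant combined selectivity score with lowered wild-type GFP, culture density cut under 30%, mutant RFP and density less affected; inactive means any of these conditions unmet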; further: one replicate is shown; some compounds called inactive have numbers as strong as hits
FGF22 binding: FGF22 (human) thermal shift binding | calls only at 9.99 µM | actives 1.5% (n = 340,000) | recombinant FGF22 thermal shift, SYPRO orange fluorescence; percent of sucrose octasulfate shift, DMSO zero | AID 651658 | Q9HCT0;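 active means melting point raised past a set limit in the mean and every replicate; three in four hits are not shown here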
Target sequence (Q9HCT0 whole entry, looked up): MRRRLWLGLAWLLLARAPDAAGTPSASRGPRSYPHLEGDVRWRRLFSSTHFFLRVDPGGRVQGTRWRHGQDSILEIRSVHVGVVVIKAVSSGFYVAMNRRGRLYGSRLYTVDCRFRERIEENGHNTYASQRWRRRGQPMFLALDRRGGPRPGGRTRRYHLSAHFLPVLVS
UCH37 DUB inh: inhibitors of human deubiquitinating enzyme UCH37; Q9Y5K5; purified proteasome/UCH37, Ub-AMC cleavage fluorescence; inhibition, % (no concentration beside the values); actives 0.33% (n = 330,000); AID 588478;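 active means mean of two replicates above 20%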;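 further: 0% = compound-free wells with enzyme and 100% = wells lacking proteasome; stock transfer was 100 nL into about 20 µL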
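Material: human UCH37 enzyme supplied as purified proteasome complex. Measure: % inhibition of Ub-AMC cleavage fluorescence. Medium: pH 7.4 Tris-HCl (50 mM) with ovalbumin, ATP-MgCl2, DTT. Times: 30 min preincubation with enzyme, 25 min cleavage at room temperature. Detection: AMC fluorescence intensity at 355/460 nm.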
HNF4A DNA FP: change in binding of human HNF4 alpha to DNA | P41235 | HNF4a-FITC DNA binding, fluorescence polarization, 1 h | AID 1224865 | activity change, % at 10 µM | actives 0.3% (n = 360,000); in the data active means activity change above about 30%, passing the limit was not always enough;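 further: controls were the assay level and a saturating level of protein; the project sought stronger binding though the title names inhibitors; some compounds called inactive have numbers as strong as hits; positive values seem to mean higher polarization but the record does not say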
E coli growth: blocks Escherichia coli growth. OD600, 23 h; stronger effect = lower value. OD600 absorbance (no concentration beside the values). actives 0.21% (n = 330,000). AID 1053175;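 active means OD600 absorbance below the run mean of sample wells minus 3.6 SD, in any replicate, cut at about 0.56 in these data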;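 further: stock transfer was 300 nL into about 60 µL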
ALR H2O2 inh: inhibitors of human sulfhydryl oxidase ALR | P55789 | purified ALR, DTT oxidation, H2O2 HRP-luminol luminescence | inhibition, % (test concentration not listed) | actives 3.8% (n = 290,000) | AID 485317;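 active means mean and each replicate at 75% or more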;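 further: stock transfer was 7.5 nL into about 7.5 µL; 0% = neutral wells and 100% = wells with inactivated enzyme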
Target sequence (P55789 whole entry, looked up): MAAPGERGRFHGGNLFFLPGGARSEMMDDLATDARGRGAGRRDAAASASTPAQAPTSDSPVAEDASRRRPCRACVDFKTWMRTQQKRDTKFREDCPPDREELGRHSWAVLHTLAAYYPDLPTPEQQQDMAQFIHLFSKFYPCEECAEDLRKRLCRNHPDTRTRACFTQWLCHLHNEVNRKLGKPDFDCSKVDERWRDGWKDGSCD
B2AR ag: activates human beta-2 adrenergic receptor causing internalization; Am2.2-beta2AR cells, FAP receptor internalization, flow cytometry; reference of the scale not given here; actives 0.43% (n = 340,000); P07550; AID 504454; response, % (test concentration not listed);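 active means response above a set limit, near 3 SD of response in nonfluorescent compounds, cut at about 42% in these data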;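 further: stock transfer was 100 nL into about 11 µL; a reference agonist was the positive control; negative values mostly stem from fluorescent compounds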
Target sequence (P07550 whole entry, looked up): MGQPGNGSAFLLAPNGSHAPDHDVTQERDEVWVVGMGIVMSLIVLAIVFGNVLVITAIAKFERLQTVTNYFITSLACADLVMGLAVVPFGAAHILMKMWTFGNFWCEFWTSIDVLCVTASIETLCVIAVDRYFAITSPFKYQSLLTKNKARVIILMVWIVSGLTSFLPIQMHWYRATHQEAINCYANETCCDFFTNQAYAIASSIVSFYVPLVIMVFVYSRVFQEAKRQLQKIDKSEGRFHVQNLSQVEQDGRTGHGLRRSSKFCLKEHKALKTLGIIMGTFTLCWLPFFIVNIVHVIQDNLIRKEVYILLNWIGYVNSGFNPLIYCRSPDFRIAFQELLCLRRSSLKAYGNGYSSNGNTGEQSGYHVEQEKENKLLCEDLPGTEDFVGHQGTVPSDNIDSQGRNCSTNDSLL
rRNA inh HTS OD600: second read-out of rRNA inh HTS, no call of its own (marks repeat the call); OD600 change, %; measured here: OD600 growth;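 optical density of the mix in the first replicate; 0 = DMSO median and -100 = no signal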
rRNA inh HTS RFP: also measured in rRNA inh HTS; calls as there; RFP signal change, %; measured here: RFP humanized mutant strains;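 first replicate; 0 = DMSO median and -100 = no signal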
* hit, by the source's call.

COc1cccc(-c2cnc(C(O)c3c(C)cc(C)cc3C)[nH]2)c1 (stereo unspecified) was read as rRNA inh HTS 2, FGF22 binding inactive, HNF4A DNA FP -1.2, rRNA inh HTS OD600 -3 and rRNA inh HTS RFP 3.4.
For CCCCNS(=O)(=O)c1cccc(NC(=O)[C@H]2C[C@H](O)[C@@H](CO)O2)c1 the results were rRNA inh HTS 14, FGF22 binding inactive, HNF4A DNA FP 6.8, rRNA inh HTS OD600 24 and rRNA inh HTS RFP 1.1.
For CCOc1ccc(S(=O)(=O)N(CC)CC(=O)NC2CC2)cc1 the results were rRNA inh HTS 8, FGF22 binding inactive, UCH37 DUB inh -0.8, HNF4A DNA FP 4.1, E coli growth 0.69, ALR H2O2 inh 1, B2AR ag -3, rRNA inh HTS OD600 8 and rRNA inh HTS RFP 0.5.
For CCOC(=O)c1nnc(-c2ccc(C)cc2)nc1Sc1cccc(Cl)c1 the results were UCH37 DUB inh 6.5, HNF4A DNA FP 0.7, E coli growth 0.74 and B2AR ag 0.
Screening COC(CNC(=O)CNC(=S)N(CCCN1CCOCC1)Cc1cccs1)OC returned rRNA inh HTS 16, FGF22 binding inactive, UCH37 DUB inh inactive, HNF4A DNA FP -1.9, E coli growth 0.69, ALR H2O2 inh -2, B2AR ag 8, rRNA inh HTS OD600 13 and rRNA inh HTS RFP 2.5.
For COc1cccc2cc(C(=O)N(Cc3ccccc3)CC3CCCO3)c(=O)oc12 (stereo unspecified) the results were UCH37 DUB inh 2.7, HNF4A DNA FP 0.2, E coli growth 0.71, ALR H2O2 inh -24 and B2AR ag -11.
`CCN(CC)S(=O)(=O)c1ccc2[nH]cc(C(=O)NCCc3ccc(OC)c(OC)c3)c(=O)c2c1` gave UCH37 DUB inh 0.6, HNF4A DNA FP -0.9, E coli growth 0.74, ALR H2O2 inh 0 and B2AR ag -3.
O=C(COC(=O)c1nc(Cl)ccc1Cl)Nc1ccc(Cl)cc1 was read as rRNA inh HTS -9, FGF22 binding inactive, UCH37 DUB inh 3.3, HNF4A DNA FP 2.1, E coli growth 0.69, B2AR ag -8, rRNA inh HTS OD600 -5 and rRNA inh HTS RFP 3.1.
`CC(C)=CCN1CCN(Cc2cnc(-c3ccccc3)s2)CC1CCO` (stereo unspecified) gave rRNA inh HTS 16, FGF22 binding inactive, UCH37 DUB inh 1.6, HNF4A DNA FP -0.2, E coli growth 0.69, B2AR ag -4, rRNA inh HTS OD600 7 and rRNA inh HTS RFP 2.4.
CSc1ccccc1C(=O)Nc1ncc(C)s1 was read as UCH37 DUB inh 2.0, HNF4A DNA FP -0.5, E coli growth 0.66, ALR H2O2 inh -6 and B2AR ag -7.
Screening O=C(CNC(=O)c1ccc(Oc2ccccc2)cc1)OCc1ccc(Br)cc1 returned rRNA inh HTS 2, FGF22 binding inactive, UCH37 DUB inh 4.4, HNF4A DNA FP -1.1, E coli growth 0.68, ALR H2O2 inh -2, B2AR ag 2, rRNA inh HTS OD600 7 and rRNA inh HTS RFP 1.2.
`S=C(NCCc1ccccc1)NC1CC2CCC(C1)N2Cc1ccccc1` (stereo unspecified) gave rRNA inh HTS -6, FGF22 binding inactive, UCH37 DUB inh 1.4, HNF4A DNA FP -0.8, E coli growth 0.69, ALR H2O2 inh -3, B2AR ag -5, rRNA inh HTS OD600 -24 and rRNA inh HTS RFP 7.9.
Screening C[C@H](NC(=O)c1[nH]cnc1C(=O)N[C@H](C)c1ccccc1)c1ccccc1 returned rRNA inh HTS -29, FGF22 binding inactive, UCH37 DUB inh 3.1, HNF4A DNA FP 1.6, ALR H2O2 inh -5, B2AR ag -4, rRNA inh HTS OD600 -60 and rRNA inh HTS RFP 3.2.
For OCC[C@@H]1C[C@H](O)[C@@H](O)[C@@]2(CCCCO2)O1 the results were rRNA inh HTS -2, FGF22 binding inactive, UCH37 DUB inh 4.1, HNF4A DNA FP 0.1, ALR H2O2 inh 0, B2AR ag 6, rRNA inh HTS OD600 -2 and rRNA inh HTS RFP -2.5.
`Cc1cccc(COc2ccccc2C(=O)NC2CCC(O)CC2)c1` (stereo unspecified) gave rRNA inh HTS -16, UCH37 DUB inh 0.9, HNF4A DNA FP -4.5, E coli growth 0.69, ALR H2O2 inh -7, B2AR ag -5, rRNA inh HTS OD600 -18 and rRNA inh HTS RFP -4.4.
`CC(C)OC(=O)c1cc(NC(=O)C2C3CCC(O3)C2C(=O)O)cc(C(=O)OC(C)C)c1` (stereo unspecified) gave UCH37 DUB inh 4.4, HNF4A DNA FP -1.1, E coli growth 0.71 and B2AR ag -6.
NC1=NC(=O)/C(=C/c2cccc(-c3ccc(S(N)(=O)=O)cc3)c2)S1 was read as rRNA inh HTS 8, UCH37 DUB inh 0.5, HNF4A DNA FP 4.7, ALR H2O2 inh 2, B2AR ag 1, rRNA inh HTS OD600 19 and rRNA inh HTS RFP -4.7.
`Cc1cc(C)c(C(=O)NCCCN2CCOCC2)c(C)c1` gave rRNA inh HTS 22, FGF22 binding inactive, UCH37 DUB inh -2.7, HNF4A DNA FP 2.0, E coli growth 0.65, ALR H2O2 inh 3, B2AR ag -11, rRNA inh HTS OD600 20 and rRNA inh HTS RFP 0.2.
`COc1cccc(CN2CCNC(=O)C2CC(=O)N(Cc2cnn(C)c2)C(C)C)c1` (stereo unspecified) gave rRNA inh HTS 17, FGF22 binding inactive, UCH37 DUB inh 1.6, HNF4A DNA FP -6.6, E coli growth 0.65, ALR H2O2 inh -20, B2AR ag 1, rRNA inh HTS OD600 6 and rRNA inh HTS RFP 0.3.
For COc1ccc(OC)c2nc(-c3ccncc3)ccc12 the results were rRNA inh HTS -12, FGF22 binding inactive, UCH37 DUB inh 1.9, HNF4A DNA FP -0.2, E coli growth 0.67, B2AR ag 3, rRNA inh HTS OD600 -14 and rRNA inh HTS RFP -2.7.

Taken from the entries so far, 2 compounds:
COc1cccc(-c2cnc(C(O)c3c(C)cc(C)cc3C)[nH]2)c1 (stereo unspecified) was read as rRNA inh HTS 2, FGF22 binding inactive, HNF4A DNA FP -1.2, rRNA inh HTS OD600 -3 and rRNA inh HTS RFP 3.4.
For CCCCNS(=O)(=O)c1cccc(NC(=O)[C@H]2C[C@H](O)[C@@H](CO)O2)c1 the results were rRNA inh HTS 14, FGF22 binding inactive, HNF4A DNA FP 6.8, rRNA inh HTS OD600 24 and rRNA inh HTS RFP 1.1.

(more compounds)
Screening Cc1ccccc1NC(=O)Cn1c(CCC(=O)O)ccc1-c1cccs1 returned rRNA inh HTS -5, FGF22 binding inactive, HNF4A DNA FP -0.6, ALR H2O2 inh 16, B2AR ag 0, rRNA inh HTS OD600 -6 and rRNA inh HTS RFP -0.5.
OC(c1ccccc1)C(CN1CCOCC1)c1ccccc1 (stereo unspecified) was read as rRNA inh HTS 8, FGF22 binding inactive, UCH37 DUB inh 2.6, HNF4A DNA FP 0.3, E coli growth 0.68, B2AR ag 5, rRNA inh HTS OD600 -1 and rRNA inh HTS RFP -3.2.
`COC(=O)c1ccc(S(=O)(=O)N2C3CCC2CC(NC(=O)NC2CCCCC2)C3)cc1` (stereo unspecified) gave UCH37 DUB inh 1.3, HNF4A DNA FP 1.4, E coli growth 0.76, ALR H2O2 inh 3 and B2AR ag -1.
For COc1ccc(CCNC(=O)C2CCC(=O)N(CC3CCCCC3)C2)cc1 (stereo unspecified) the results were rRNA inh HTS 2, FGF22 binding inactive, UCH37 DUB inh 1.7, HNF4A DNA FP -0.4, E coli growth 0.66, B2AR ag 12, rRNA inh HTS OD600 -4 and rRNA inh HTS RFP -0.2.
O=S(=O)(NC1CC1)c1ccc(Cl)cc1F was read as rRNA inh HTS 5, FGF22 binding inactive, UCH37 DUB inh 1.8, HNF4A DNA FP 5.0, E coli growth 0.66, ALR H2O2 inh -7, B2AR ag 6, rRNA inh HTS OD600 15 and rRNA inh HTS RFP -1.4.
Screening COCCNC(=O)c1ccc2snnc2c1 returned UCH37 DUB inh 4.1, HNF4A DNA FP -1.7, E coli growth 0.7, ALR H2O2 inh -4 and B2AR ag -1.
CC(=O)c1cccc(NC(=O)c2ccc3c(c2)CCN3S(=O)(=O)c2ccccc2)c1 was read as rRNA inh HTS -12, FGF22 binding inactive, UCH37 DUB inh 0.4, HNF4A DNA FP 3.8, E coli growth 0.71, ALR H2O2 inh -2, B2AR ag 13, rRNA inh HTS OD600 4 and rRNA inh HTS RFP 1.1.
For CCN(Cc1ccccc1)C(=O)C1CCN(S(=O)(=O)c2ccc3c(c2)OCCO3)CC1 the results were rRNA inh HTS -3, FGF22 binding inactive, UCH37 DUB inh 2.5, HNF4A DNA FP -1.3, E coli growth 0.74, ALR H2O2 inh -6, B2AR ag -2, rRNA inh HTS OD600 -10 and rRNA inh HTS RFP 1.2.
Screening COc1ccc(CC(=O)N(C)CC(=O)Nc2ccccc2SC)cc1 returned rRNA inh HTS -9, FGF22 binding inactive, UCH37 DUB inh -0.1, HNF4A DNA FP 3.1, E coli growth 0.66, ALR H2O2 inh 3, B2AR ag -2, rRNA inh HTS OD600 -9 and rRNA inh HTS RFP -5.8.
O=C(CCNC(=O)C1CCN(S(=O)(=O)c2ccccc2)CC1)NCCc1ccc(Cl)cc1 was read as rRNA inh HTS 1, FGF22 binding inactive, UCH37 DUB inh 1.8, HNF4A DNA FP -0.5, E coli growth 0.71, ALR H2O2 inh 4, B2AR ag 5, rRNA inh HTS OD600 8 and rRNA inh HTS RFP -0.6.
O=C(C[C@H]1C/C=C\CC[C@H](Cc2ccc(F)cc2)C(=O)OC[C@@H]2CCCN2C1=O)N[C@H](CO)Cc1ccccc1 was read as rRNA inh HTS -15, FGF22 binding inactive, UCH37 DUB inh 3.7, HNF4A DNA FP 7.5, ALR H2O2 inh 1, B2AR ag -15, rRNA inh HTS OD600 -24 and rRNA inh HTS RFP 20.
Screening C=CCON1C(=O)c2ccccc2C1=O returned UCH37 DUB inh 5.1, HNF4A DNA FP -2.3, E coli growth 0.66, ALR H2O2 inh -2 and B2AR ag -3.
COc1ccccc1CNC(=O)CCNS(=O)(=O)c1cccc2nsnc12 was read as rRNA inh HTS -1, FGF22 binding inactive, UCH37 DUB inh 0.5, HNF4A DNA FP -0.3, E coli growth 0.67, ALR H2O2 inh -8, B2AR ag -3, rRNA inh HTS OD600 -4 and rRNA inh HTS RFP -5.7.
`CCOC(=O)CN1N=C(c2ccc(C)cc2)CCC1=O` gave rRNA inh HTS 10, FGF22 binding inactive, UCH37 DUB inh 0.5, HNF4A DNA FP -2.9, E coli growth 0.69, ALR H2O2 inh -2, B2AR ag 0, rRNA inh HTS OD600 13 and rRNA inh HTS RFP -0.8.
For Cc1ccc(CNC(=O)C2CCC(=O)N(CCc3ccc(Cl)cc3)C2)s1 (stereo unspecified) the results were rRNA inh HTS -5, FGF22 binding inactive, UCH37 DUB inh 1.8, HNF4A DNA FP 0.3, E coli growth 0.68, ALR H2O2 inh -9, B2AR ag 5, rRNA inh HTS OD600 -9 and rRNA inh HTS RFP 4.3.
`COc1ccc(C(=O)NCC(c2cccs2)N2CCOCC2)cc1OC` (stereo unspecified) gave rRNA inh HTS 1, FGF22 binding inactive, UCH37 DUB inh -0.5, HNF4A DNA FP 2.4, E coli growth 0.68, ALR H2O2 inh 2, B2AR ag -4, rRNA inh HTS OD600 1 and rRNA inh HTS RFP -1.9.
O=C(NNS(=O)(=O)c1ccc(Cl)cc1)c1cc(-c2ccccc2)nc2ccccc12 was read as rRNA inh HTS -31*, FGF22 binding inactive, HNF4A DNA FP -2.2, ALR H2O2 inh 6, B2AR ag -7, rRNA inh HTS OD600 -14* and rRNA inh HTS RFP 2.3*.

These rows are one share of the data; the hit share may differ from the screen's.
